Screening results deposited in PubChem BioAssay by ICCB-Longwood Screening Facility, Harvard Medical School.
Ecoli growth: E. coli growth inhibition; Escherichia coli growth, OD600, 23 h; active compounds read low; OD600 absorbance (test concentration not listed); 330,000 tested, 0.21% active;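 active = OD600 absorbance below the run mean of sample wells minus 3.6 SD, in any replicate, cut at about 0.56 in these data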;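 note: stock transfer was 300 nL into about 60 µL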
An asterisk follows results filed as active; & = joins results of further samples.

SMILES	Ecoli growth
Cc1ccccc1C=NN1CCN(c2ccccc2)CC1	0.667
CNC(=S)NN=Cc1ccc(C(C)C)cc1	0.658
CC(=NNC(=O)C(=O)Nc1cccc(C(F)(F)F)c1)c1ccc(Cl)s1	0.728
COC(=O)[C@@]1(Cc2ccc(OC)cc2)C2c3cc(C(=O)N4CCCC4)n(Cc4c(CO)[nH]cc(C)c4=O)c3CC2CN1C(=O)c1ccccc1 (stereo partly specified)	0.649
COc1ccc(C=NNC(=O)CON=C(C)c2cccs2)cc1	0.677
COc1ccc(N(CC(=O)NN=Cc2ccccc2OC)S(=O)(=O)c2ccccc2)cc1	0.693
C=CCN=C1NC(c2cccc(C(F)(F)F)c2)C(C(=O)OC)=C(C)N1CC (stereo unspecified)	0.652
Clc1ccccc1CN1CCN(N=CC=Cc2ccco2)CC1	0.673
Cc1ccc(S(=O)(=O)N(C)C(=NS(=O)(=O)c2ccccc2)c2ccccc2)cc1	0.676
CCCCN1C(=O)/C(=C2/Sc3ccccc3N2C)SC1=Nc1ncn[nH]1	0.709
CC(=NS(=O)(=O)c1ccc(C)cc1)N(C)C	0.671
C1=CCC(C=Nn2cnnc2)CC1 (stereo unspecified)	0.683
CC(=C(C#N)C(=O)NCc1ccccc1)N(C)C	0.692
COc1ccc(NC(=O)CC(C)=NNC(=O)C2CCCCC2)c([N+](=O)[O-])c1	0.7
O=C(NN=C1CCCc2ccccc21)c1cccc([N+](=O)[O-])c1	0.665
CC(NC(=O)c1nc[nH]c1C(=O)NC1CCN(C(=O)OC(C)(C)C)CC1)C(=O)OCc1ccccc1 (stereo unspecified)	0.614
COc1ccc(C=NNC(=O)c2ccn[nH]2)cc1CN1CCOCC1	0.638
CC(=NO)c1cc(Cl)ccc1O	0.627
CCOC(=O)C1C2COc3ccccc3C2N2C(=O)N(c3ccc(C)cc3)C(=O)[C@@]12C (stereo partly specified)	0.686
CC(C)C(Nc1ccc(S(=O)(=O)N2CCOCC2)cc1[N+](=O)[O-])C(=O)OCC(N)=O (stereo unspecified)	0.672
CNC(=O)C1OC(n2cnc3c(NCc4cccc(I)c4)ncnc32)C(O)C1O (stereo unspecified)	0.675
O=C(COc1ccc(C=NNC(=O)c2cc3ccccc3o2)cc1Cl)Nc1ccccc1	0.576
COc1ccc(C(O)=C2C(=O)C(=O)N(CCCN(C)C)C2c2ccc(Cl)cc2)cc1OC (stereo unspecified)	0.676
O=C(NN=Cc1ccco1)c1cc(-c2ccncc2)nc2ccccc12	0.696
COc1ccccc1-c1nnc(SCC(O)=C(C#N)c2nc3ccccc3[nH]2)n1C1CCCCC1	0.725
Cc1cc([N+](=O)[O-])nn1Cc1ccc(C(=O)NN=Cc2ccc(N(C)C)cc2)cc1	0.659
CN1CCc2c(sc(N=Cc3ccco3)c2C(N)=O)C1	0.721
COc1cc(C=NNC(=O)Cc2csc(C)n2)ccc1OCC(C)C	0.689
CN1CCN(C=Nc2sc3c(c2C#N)CCCCC3)CC1	0.738
O=C(C(=CO)N=Nc1ccccc1)c1ccc(Cl)cc1	0.728
ON=Cc1cc(Cl)ccc1OCc1ccccc1Cl	0.71
COc1ccc(S(=O)(=O)N(C)CC2Oc3ccc(NC(=O)Nc4ccc5c(c4)OCO5)cc3CC(=O)N(C(C)CO)CC2C)cc1 (stereo unspecified)	0.657
O=C(O)CCn1cc(C=NO)c(-c2cccc([N+](=O)[O-])c2)n1	0.715
CC(C)C(NC(=O)c1ccccc1)C(=O)N1CCc2ccccc21 (stereo unspecified)	0.761
O=C(NN=Cc1ccc(Br)o1)/C(=C/c1ccc([N+](=O)[O-])cc1)NC(=O)c1ccccc1	0.702
Fc1ccc(C=Nn2c(COc3ccccc3)n[nH]c2=S)cc1	0.694

Gathered by group: those above containing a CF3 group.
SMILES	Ecoli growth
CC(=NNC(=O)C(=O)Nc1cccc(C(F)(F)F)c1)c1ccc(Cl)s1	0.728
C=CCN=C1NC(c2cccc(C(F)(F)F)c2)C(C(=O)OC)=C(C)N1CC (stereo unspecified)	0.652

The list continues:
SMILES	Ecoli growth
CCOC1OC(C(=O)NC2CC2)=CC(C(C)(C)C)C1CCCO (stereo unspecified)	0.698
S=c1[nH]nc(-c2cccnc2)n1N=Cc1ccccc1	0.681
COc1cc(C=NNC(=O)c2ccc(CN3C(=O)c4cccc5cccc3c45)cc2)cc(OC)c1O	0.697
O=[N+]([O-])c1ccc(Cl)c(C=Nn2c(-c3ccncc3)n[nH]c2=S)c1	0.658
COCc1cc(=O)[nH]c(N=C(N)Nc2ccccc2C)n1	0.679
CC(=NNC(=O)c1cccc(NN=C(C)c2ccco2)c1)c1ccco1	0.691
O=C(C1CC=CC2CCN(Cc3ccc(Cl)c(Cl)c3)C(=O)C21)N1CCOCC1 (stereo unspecified)	0.629
C=CC1c2ccccc2N(S(=O)(=O)c2ccc(C)cc2)C(c2ccc(OC(C)=O)cc2)C1(C#N)C#N (stereo unspecified)	0.71
CCOc1cc(C=NNc2ncc(C)c(=O)[nH]2)ccc1O	0.673
Cc1cc(C(=O)NN=Cc2ccc(O)c(O)c2O)c(C)n1-c1ccccc1	0.623
CC1CN(C(C)CO)C(=O)c2cc(NC(=O)CCCCCC(=O)Nc3ccccc3N)ccc2OC1CN(C)Cc1ccccc1 (stereo unspecified)	0.653
C[C@@]12C(=O)Nc3cc(F)ccc3C(=O)N1C1c3cc(Br)ccc3OCC1C2c1ccccc1 (stereo partly specified)	0.707
CC(=NNC(=O)c1ccccc1)c1nc2ccccc2n1C	0.704
COc1cc(C=N/N=C2/NC(=O)C(c3ccccc3)S2)ccc1O (stereo unspecified)	0.676
Cn1cccc1C=NN1CCN(Cc2ccccc2Cl)CC1	0.664
O=C1C2C3C=CC(C4CC34)C2C(=O)N1N=Cc1ccc([N+](=O)[O-])s1 (stereo unspecified)	0.754
CC(=NNC(=O)c1ccc2c(c1)OCO2)c1ccc(O)cc1	0.715
Cc1ccc(C=Nn2c(C3CCCCC3)n[nH]c2=S)o1	0.675
COc1ccc(C=NNC(=O)c2ccccc2F)cc1COc1ccc(F)cc1F	0.753
CC(=NNC(=O)Cc1ccc(Cl)cc1)c1cccc(NC(=O)c2cccnc2)c1	0.714
Cc1nn(C)cc1C=NNC(=S)Nc1ccc(Cl)cc1Cl	0.712
N#CC(=NNc1c(Cl)cccc1Cl)C(=O)NN	0.634
CCOC(=O)C1C2COc3cc(OC)ccc3C2N2C(=O)N(c3ccc(C)cc3)C(=O)[C@]12C (stereo partly specified)	0.662&0.681
C#Cc1ccc(C2C=C(C(=O)N3CCOCC3)OC(OCCCCO)C2)cc1 (stereo unspecified)	0.689

A second format for part of the listing above:
structure,Ecoli growth
O=C1C2C3C=CC(C4CC34)C2C(=O)N1N=Cc1ccc([N+](=O)[O-])s1 (stereo unspecified),0.754
CC(=NNC(=O)c1ccc2c(c1)OCO2)c1ccc(O)cc1,0.715

Carrying on.
SMILES	Ecoli growth
CN1CC2C3C(=O)N(C)C(=O)C3[C@](Cc3ccccc3)(C1=O)N2C(=O)c1ccc(Cl)cc1 (stereo partly specified)	0.679
CCC(C)=NN1C(=O)c2ccccc2NC1(C)CC (stereo unspecified)	0.682
CC1CCN(c2ccc3c(c2)S(=O)(=O)c2cccc(C(=O)NCC4CCCO4)c2C3=O)CC1 (stereo unspecified)	0.69
COC(=O)C1CC(=NNS(=O)(=O)c2ccc(C)cc2)c2ccsc2C1 (stereo unspecified)	0.737
O=C(NCCN1CCCCC1)c1ccc(C=NO)nc1	0.693
O=C(CSc1nc2ccccc2[nH]1)NN=Cc1ccncc1	0.645
Cc1c(C)c(C)c(CON=Cc2cccs2)c(C)c1C	0.615
COc1ccc(Br)cc1C=Nn1c(C)nc2ccccc2c1=O	0.67
Cc1ccc(C)c(OCC(=O)NN=Cc2cccn2C)c1	0.702
Cc1ccc(S(=O)(=O)NN=Cc2ccc(C(=O)O)cc2)cc1	0.711
O=C(NN=Cc1cccc(O)c1)c1ccc(NC(=O)c2cccc([N+](=O)[O-])c2)cc1	0.705
CCN1CC2C3C(=O)N(C)C(=O)C3[C@](Cc3ccccc3)(C1=O)N2C(=O)c1ccccc1 (stereo partly specified)	0.699

By substructure, the compounds so far with fluorine (5)
SMILES	Ecoli growth
CC(=NNC(=O)C(=O)Nc1cccc(C(F)(F)F)c1)c1ccc(Cl)s1	0.728
C=CCN=C1NC(c2cccc(C(F)(F)F)c2)C(C(=O)OC)=C(C)N1CC (stereo unspecified)	0.652
Fc1ccc(C=Nn2c(COc3ccccc3)n[nH]c2=S)cc1	0.694
C[C@@]12C(=O)Nc3cc(F)ccc3C(=O)N1C1c3cc(Br)ccc3OCC1C2c1ccccc1 (stereo partly specified)	0.707
COc1ccc(C=NNC(=O)c2ccccc2F)cc1COc1ccc(F)cc1F	0.753

Remaining list, next part:
SMILES	Ecoli growth
C=CCNC(=S)NN=Cc1ccc(-c2ccc(OC)cc2)o1	0.693
COc1ccccc1NC(=O)C(=O)NN=Cc1cccs1	0.69
CC(ON=Cc1ccccc1OC(F)F)C(=O)Nc1cccc(S(=O)(=O)N2CCOCC2)c1 (stereo unspecified)	0.645
COc1cc(C=Nn2c(C)n[nH]c2=S)ccc1OCc1ccc(F)cc1	0.686
Cc1nn(C)cc1C=NNC(=O)c1sc2ccccc2c1Cl	0.724
COc1ccc(C(=O)NN=C(C)c2cccc(NC(=O)C(F)(F)F)c2)cc1	0.606
Nc1cccc(C(=O)NN=Cc2ccsc2)c1	0.706
Cc1ccsc1C=Nn1c(-c2ccco2)n[nH]c1=S	0.754
COC(=O)C=CC(=O)NCc1ccco1	0.636
O=C(NN=Cc1ccccn1)c1cc(-c2ccccc2)nc2ccccc12	0.692
CCC1=C(OC(=O)N(CC)CC)N2C(=O)OC(=NCCc3c[nH]c4ccccc34)[C@]2(Cc2ccccc2)C2C1=CCC1C(=O)NC(=O)C12 (stereo partly specified)	0.715
COc1ccc(-c2[nH]ncc2C=NNC(=O)c2cc(Br)ccc2O)c(OC)c1	0.665

Overlap with the part before: 3 compounds; new compounds follow.
SMILES	Ecoli growth
O=C(NN=Cc1ccccn1)c1cc(-c2ccccc2)nc2ccccc12	0.692
CCC1=C(OC(=O)N(CC)CC)N2C(=O)OC(=NCCc3c[nH]c4ccccc34)[C@]2(Cc2ccccc2)C2C1=CCC1C(=O)NC(=O)C12 (stereo partly specified)	0.715
COc1ccc(-c2[nH]ncc2C=NNC(=O)c2cc(Br)ccc2O)c(OC)c1	0.665
Cc1cc(C=C2C(=N)N3C(=NC2=O)SN=C3S(C)(=O)=O)c(C)n1-c1ccccc1	0.698
O=C(Nc1cccnc1)C(N=Nc1cccnc1)=C(O)c1ccccc1	0.637
NC(=S)NN=Cc1c(O)c(Br)cc2oc3c(c12)CCCC3	0.674
COc1ccc(C2C3C(=O)N(C(C)(C)C)C(=O)C3[C@]3(CC(C)C)C(=O)N(c4cccc(Br)c4)C(=O)N23)cc1 (stereo partly specified)	0.687
CCCN(CCC)Cc1c(C(=O)NN=CCCc2ccccc2)nnn1-c1nonc1N	0.711
S=C(NN=Cc1ccc2ncccc2c1)Nc1ccccc1	0.685
COc1cc(C=NNC(=O)CNC(=O)C(c2ccccc2)c2ccccc2)ccc1O	0.665
CCOC(=O)c1ccc(-c2ccc(C=NNC(=O)CN(c3ccccc3Br)S(C)(=O)=O)o2)cc1	0.721
O=C(NN=Cc1cc([N+](=O)[O-])cc([N+](=O)[O-])c1O)C(O)(c1ccccc1)c1ccccc1	0.669
CCOc1ccc(C2C(=C(O)c3ccc(OC)c(OC)c3)C(=O)C(=O)N2c2cc(C)on2)cc1OC (stereo unspecified)	0.695
CC(=NNc1nc(N2CCCCCC2)nc(N2CCCCCC2)n1)c1ccccc1	0.731
C#CCOCCOCCOCCNc1nc(N2CCN(C(=O)C(CCCCN)n3cc(CN)nn3)CC2)nc(N2CCN(C(=O)C(CCC(=O)O)n3cc(C(N)CCCCN)nn3)CC2)n1 (stereo unspecified)	0.684
O=C(CNc1ccccc1)NN=Cc1ccc2c(c1)OCCO2	0.689
C=C1CCC2C(C)(C)C(O)CC[C@@]2(C)C1COc1cc(=O)oc2ccccc12 (stereo partly specified)	0.646
O=C(NN=Cc1ccc(Cl)cc1Cl)c1n[nH]c2c1CCCC2	0.677
COc1cc(C=NNC(=O)CNC(=O)c2cccc([N+](=O)[O-])c2)ccc1O	0.74
CC(C)(C)c1ccc(C=NNc2cccc(C(=O)O)c2)cc1	0.666
COc1cccc2c(NN=Cc3ccco3)cc(C)nc12	0.669
NC(=O)CCC1NC(=O)C(CO)NC(=O)c2cc([N+](=O)[O-])cc(I)c2NCCC(C(N)=O)NC(=O)C(Cc2ccc(O)cc2)NC1=O (stereo unspecified)	0.674
O=C(NN=Cc1ccc(-c2cccc([N+](=O)[O-])c2)o1)c1ccccc1O	0.641
O=C1c2c(O)cc(O)cc2OC(c2ccc(O)c(O)c2)C1O (stereo unspecified)	0.661
C#Cc1ccc(C2C=C(C(=O)N3CCN(Cc4ccccc4)CC3)OC(OCC)C2CCCO)cc1 (stereo unspecified)	0.633&0.681
CN1C(=O)C(CC(=O)O)SC1=NN=Cc1ccc(O)cc1O (stereo unspecified)	0.713
COc1cc(C=NNc2cc(C)nc(NS(=O)(=O)c3ccccc3)n2)ccc1O	0.66
CCOC(=O)C1C2COc3cc(OC)ccc3C2N2C(=O)c3cc(C)ccc3NC(=O)[C@@]12C (stereo partly specified)	0.728
O=S1(=O)C2CC3C=C[C@@]2(CN1Cc1ccc(Cl)cc1)O3 (stereo partly specified)	0.671
Cc1ccc(Cn2cc(C=NNC(=O)Cc3nnc(NC(=O)c4ccc(C)cc4)s3)c3ccccc32)cc1	0.72
C#CCOCCOCCOCCNc1nc(N2CCN(C(=O)Cn3cc(CCCCN)nn3)CC2)nc(N2CCN(C(=O)C(C(C)C)n3cc(CCO)nn3)CC2)n1 (stereo unspecified)	0.627
CCCC(C)=NNc1nc2c(c(=O)n(C)c(=O)n2C)n1C	0.652
OCCC1CC(O)C(O)[C@@]2(CCc3ccccc3CO2)O1 (stereo partly specified)	0.655&0.707&0.646&0.704
CCCN(CCC)Cc1c(C(=O)NN=Cc2c[nH]c3ccccc23)nnn1-c1nonc1N	0.683
Oc1ccc(CC2CNCCN2CCC23CC4CC(CC(C4)C2)C3)cc1 (stereo unspecified)	0.577&0.614
COc1cccc(-c2c(C(=O)NN=Cc3cccs3)nnn2-c2nonc2N)c1	0.678

Only part of the results is shown. The share of hits here may be higher or lower than overall.
